gsp antagonist = qHTS for Antagonists of gsp, the Etiologic Mutation Responsible for Fibrous Dysplasia/McCune-Albright Syndrome: qHTS; Potency, µM (titrated, usually from 76.9 µM), inactives show at the top dose activity change, negative = inhibition, usual class: inhibitors; AID 624288, 2012; gsp-mutant cells, cAMP HTRF, 30 min; control for the full effect not named in the record; 340,000 compounds, 0.4% hits; active = falling curve of any shape with a large fitted effect; inconclusive = falling curve, mostly with a smaller effect; inactive = flat or rising curve; cell line not stated here;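 also: intracellular cAMP measured with PDE inhibitor Ro 20-1724 present during compound exposure; potency is read from the fitted curve at half-maximal effect; % is scaled to controls: 0 for no effect and ±100 for the full control effect; nearly all actives have a fitted effect of over 65% in size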
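G418-selected cells were plated in DMEM/10% FBS for 16-24 h at 37C, then treated with compounds plus the PDE inhibitor […] (300 uM solution added) for 30 min at 37C. Intracellular cAMP was measured by HTRF after 30 min lysis at room temperature.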
gsp agonist = qHTS for Agonist of gsp, the Etiologic Mutation Responsible for Fibrous Dysplasia/McCune-Albright Syndrome: qHTS | gsp mutant cells, cAMP HTRF, 30 min; control for the full effect not named in the record | AID 624287, 2012 | 340,000 compounds, 0.13% hits | Potency, µM (doses to about 76.9 µM), for the others: at the top dose activation (cAMP increase), actives largely listed as activators; active = well fitted activation curve with a large enough effect; inconclusive = small, poorly fitted or top-dose-only effect, or another doubt; inactive = no such curve, though single readings can be large or run the other way; cell line not stated here;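 also: phosphodiesterase inhibitor Ro 20-1724 added with compounds to block cAMP breakdown; potency is read from the fitted curve at half-maximal effect; nearly all actives have a fitted effect of over 60% in size; about a fifth of the inactives were tested at one dose only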
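Cells in DMEM/10% FBS with G418 were pretreated with compounds in DMSO plus […] (300 uM stock) for 30 min at 37C. cAMP was measured by HTRF (cAMP-d2 plus anti-cAMP antibody-K) after 30 min at room temperature.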
Six1-Eya2 inh = qHTS Assay for Inhibitors of the Six1/Eya2 Interaction | AlphaScreen GST-Six1/His-Eya2 binding, biochemical; stronger effect = lower value; control for the full effect not named in the record | activity change, % (test concentration not listed) | 360,000 compounds, 0.56% hits | AID 651725, 2012; in the data active = activity change below about -65%; inconclusive = about -30% to -65%; inactive = above about -30%; also: % is scaled to controls: 0 for no effect and ±100 for the full control effect
Target sequence (O00167 whole entry, looked up): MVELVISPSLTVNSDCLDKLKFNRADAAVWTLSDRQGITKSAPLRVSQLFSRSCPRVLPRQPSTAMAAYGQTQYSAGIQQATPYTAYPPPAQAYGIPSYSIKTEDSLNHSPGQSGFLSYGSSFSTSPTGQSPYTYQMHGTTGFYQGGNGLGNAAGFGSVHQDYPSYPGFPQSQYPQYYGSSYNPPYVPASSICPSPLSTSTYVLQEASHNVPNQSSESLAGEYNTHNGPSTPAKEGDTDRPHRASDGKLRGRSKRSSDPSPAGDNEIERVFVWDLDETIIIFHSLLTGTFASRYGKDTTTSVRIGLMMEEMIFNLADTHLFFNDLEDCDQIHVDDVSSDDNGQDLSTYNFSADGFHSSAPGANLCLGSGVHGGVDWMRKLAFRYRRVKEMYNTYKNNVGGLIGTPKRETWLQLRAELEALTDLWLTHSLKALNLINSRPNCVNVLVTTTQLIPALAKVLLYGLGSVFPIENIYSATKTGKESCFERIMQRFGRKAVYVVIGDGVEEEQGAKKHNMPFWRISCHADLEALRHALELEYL
Target sequence (Q15475 whole entry, looked up): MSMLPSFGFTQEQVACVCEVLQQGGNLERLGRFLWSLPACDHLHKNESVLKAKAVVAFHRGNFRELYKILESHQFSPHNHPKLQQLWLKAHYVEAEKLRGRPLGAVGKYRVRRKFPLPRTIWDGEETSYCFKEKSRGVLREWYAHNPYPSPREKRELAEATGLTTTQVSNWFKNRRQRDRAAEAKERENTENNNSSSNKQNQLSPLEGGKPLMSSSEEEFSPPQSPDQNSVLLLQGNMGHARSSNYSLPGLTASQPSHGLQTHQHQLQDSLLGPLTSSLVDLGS
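Six1/Eya2 binding was read as AlphaScreen signal after compounds were pinned into GST-Six1 plus His-tagged Eya2 (5X stock 250/500 nM) in pH 8.0 Tris/NaCl/TCEP buffer, beads added, then incubated 1 h, 37 C, dark.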
CtBP-E1A inh = qHTS Assay for Inhibitors of the CtBP/E1A Interaction. 340,000 compounds, 0.49% hits. AID 651724, 2012. activity change, % (test concentration not listed). AlphaScreen GST-E1A/His-CtBP binding, 1536-well; stronger effect = lower value; control for the full effect not named in the record; in the data active means activity change below about -65%; inconclusive means about -30% to -65%; inactive means above about -30%; also: % is scaled to controls: 0 for no effect and ±100 for the full control effect
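Protein mix (5X: 125 nM each GST-E1A, His-CtBP) was incubated with pinned compound 2 h at 37 deg C in dark, in 50 mM Tris pH 8.0 buffer with 300 mM NaCl. Glutathione donor and nickel acceptor beads followed; AlphaScreen signal read after 1 h.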
D2 ag = Beta-Arrestin HTS for Positive Allosteric Modulators of the Human D2 Dopamine Receptor: Agonists; D(2) dopamine receptor (Homo sapiens), P14416; DiscoveRx PathHunter D2 beta-arrestin, luminescence, 90 min; 100% = 57 uM dopamine signal; 360,000 compounds, 0.084% hits; activation, % (no concentration beside the values); in the data active = activation above about 40%; inconclusive = about 15% to 40%; inactive = below about 15%; also: compound concentration not given in the record; the text of the record calls up to 30% inactive
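DiscoveRx PathHunter D2 beta-arrestin cells (2,100/well) attached overnight, then compound-stimulated 90 min at 37 C in HBSS/10 mM HEPES/0.1% Tween-20 buffer; beta-galactosidase complementation read by luminescence after 1 h at ambient temperature. Dopamine 57 uM final (EC100) as control.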
D2 potentiator = Beta-Arrestin HTS for Positive Allosteric Modulators of the Human D2 Dopamine Receptor: Potentiators; potentiation, % (no concentration beside the values); D(2) dopamine receptor (Homo sapiens), P14416; DiscoveRx D2 beta-arrestin cells, luminescence, 90 min; 100% = 57 uM dopamine signal; 360,000 compounds, 0.23% hits; active = potentiation of 50% or more; inconclusive = 30% to 50%; inactive = 30% or less;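 also: compound concentration not given in the record; tested on top of an EC20 dose of dopamine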
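D2 cells co-treated with compound plus 50 nM dopamine (EC20) for 90 min at 37 deg C to detect potentiation. Beta-arrestin recruitment was read as enzyme-fragment luminescence after 1 h at ambient temperature. Full response was set by 57 uM dopamine.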
* hit, by the source's call; ? = inconclusive; . = no result given; [ ] = dose if it differs, or a comment.

Compound	gsp antagonist	CtBP-E1A inh	Six1-Eya2 inh	D2 ag	gsp agonist	D2 potentiator
O=Cc1cn(-c2ccccc2)nc1-c1ccc2c(c1)OCCO2	-15%	-3	-4	-4.7	15%	-17
Fc1ccccc1COc1ccccc1CNCc1ccncc1	4%	8	-1	-1.8	-4%	-5
COc1cccc(NC(=O)Nc2nnc(Cc3ccccc3F)s2)c1	-2%	.	0	-31	4%	-11
O=C(NN1C(=O)C2C3C=CC(C4CC34)C2C1=O)c1ccc(Cl)cc1 (stereo not drawn)	10%	1	-3	-2.7	?	-9
Cn1c(Cn2cnc3ccccc32)nnc1SCC(=O)CC(=O)Nc1ccccc1	-13%	-5	-4	0.5	8%	2
O=C(Nc1cccc(S(=O)(=O)N2CCCCC2)c1)c1cccs1	-10%	-7	-19	-2.6	3%[15.4 µM]	-13
Cc1ccc2cccc(OCCOCCOc3ccccc3Br)c2n1	-11%	-1	1	-5.1	-22%	-24
CCc1nc2c(OCC3CCCCC3)cccn2c1N(C)C(=O)c1ccc(C)cc1	.	-20	-17	-7.9	.	-19
CCOC(=O)C(NC(=O)NCc1ccc(OC)cc1)(OCC)C(F)(F)F (stereo not drawn)	-13%	10	1	-2.8	-37%[inhibitor]	10
CCCn1nc(C(=O)Nc2cc(S(=O)(=O)Nc3ccc(OC)cc3)ccc2O)c2ccccc2c1=O	?	-3	-15	-6.5	5%[15.4 µM]	-5
COC(=O)Cn1cc(/C=C(/C#N)C(=O)N2CCOCC2)c2ccccc21	-27%	-20	4	-1.2	0%[15.4 µM]	-1
Oc1ccc(-c2[nH]ncc2-c2cnn(-c3ccccc3)c2)c(O)c1	2%	-1	-16	-0.1	6%[15.4 µM]	5
CC1=C(C)CC(C(=O)NCc2ccccn2)C(C(=O)O)C1 (stereo not drawn)	7%	-27	-25	2.0	-16%	2
CC1(C)CC(=O)c2sc(NC(=O)c3cccs3)nc2C1	-4%	2	1	9.2	?	3
CCc1nc(SCC(=O)Nc2ccc([N+](=O)[O-])cc2)n[nH]1	-7%	6	5	-2.0	6%	-16
CCN1C(=O)c2ccccc2S(=O)c2ccc(C(=O)NCCCN3CCCC3=O)cc21 (stereo not drawn)	6%	-10	-19	5.2	2%	-10
Cc1oc(C(C)(C)C)cc1C(=O)Nc1cccc(C(=O)O)c1	-7%	3	0	-3.9	-25%	-14
CCC(C)(C)NC(=O)C(c1ccc(OC)cc1)N(C(=O)CCC(=O)Nc1cc(C)on1)c1ccc(OC)c(OC)c1 (stereo not drawn)	-3%	20	-9	-3.2	22%[15.4 µM]	5
CSCc1ccc(C(=O)OCC(=O)NC2CCCC2)o1	.	-4	9	-2.7	53%	-12
O=c1oc2ccccc2cc1-c1nc2c(s1)CCCC2	-4%	21	17	-1.8	9%	-8
COc1ccccc1NC(=O)c1ccc(NC(=O)CN2CCN(C(=O)c3ccco3)CC2)cc1	-7%	-14	-5	11	-32%[inhibitor]	19
COc1ccc(-n2c(C)cc(-c3cn4cccc(C)c4n3)c2C)cc1	-8%	.	-4	1.8	20%	-15
COc1cc(C(=O)OC(C)c2ccc(F)cc2)ccc1OCC(=O)N1CCOCC1 (stereo not drawn)	-8%	4	-1	4.6	-8%	1
CC(=O)c1cccc(Oc2ncccn2)c1	3%	.	1	-2.3	11%	-4
Clc1nnc(N2CCCCC2)c2ccccc12	2%	0	-3	5.9	?	4
O=C(Cc1cccc(NC(=O)C2CCCN(C(=O)C3CC3)C2)c1)Nc1cccc(C(=O)N2CCCC2)c1 (stereo not drawn)	-2%	-9	1	3.5	-22%	-2
Cc1cccn2c(=O)c3cc(C(=O)NCc4ccco4)c(=N)n(C(C)C)c3nc12	5%	-19	-7	-0.4	?	-13
CS(=O)(=O)Nc1cccc(C(=O)CC2(O)C(=O)Nc3ccc(Br)cc32)c1 (stereo not drawn)	-14%	0	11	-5.7	-1%	-21
CCCCc1cc(=O)oc2cc(OCC(=O)NCC3CCC(C(=O)O)CC3)ccc12 (stereo not drawn)	-8%	18	18	-0.5	-14%	-2
O=c1cnc2cc([N+](=O)[O-])ccc2[nH]1	-1%	-8	-9	-3.8	-37%[inhibitor]	-6

Brought forward from above: 3 compounds, followed by the next part.
Compound	gsp antagonist	CtBP-E1A inh	Six1-Eya2 inh	D2 ag	gsp agonist	D2 potentiator
CS(=O)(=O)Nc1cccc(C(=O)CC2(O)C(=O)Nc3ccc(Br)cc32)c1 (stereo not drawn)	-14%	0	11	-5.7	-1%	-21
CCCCc1cc(=O)oc2cc(OCC(=O)NCC3CCC(C(=O)O)CC3)ccc12 (stereo not drawn)	-8%	18	18	-0.5	-14%	-2
O=c1cnc2cc([N+](=O)[O-])ccc2[nH]1	-1%	-8	-9	-3.8	-37%[inhibitor]	-6
CCc1cccc(NC(=S)N(CCN(C)C)C(C)c2ccncc2)c1 (stereo not drawn)	-7%	.	1	-7.3	1%	-20
O=C(NCCc1ccccc1C(F)(F)F)C1CCC(=O)N(C2CC2)C1 (stereo not drawn)	8%	15	7	-3.2	-13%	-5
CC(C)(C)OC(=O)N[C@@H](C(=O)OC(C)(C)C)c1ccc2ccccc2c1	5%	13	4	-1.9	2%	-16
CC1CCCC(C)N1C(=O)c1ccc(S(=O)(=O)N2CCCC2)cc1 (stereo not drawn)	3%	5	6	-1.0	-39%[inhibitor]	-2
COC(=O)c1ccc(NC(=O)c2cc3c(CO)cnc(C)c3oc2=Nc2cccc(C(N)=O)c2)cc1	6%	-14	-24	7.4	4%[15.4 µM]	-4
CCOC(=O)c1ccc(N2C(=O)CC(Nc3ccc(O)cc3)C2=O)cc1 (stereo not drawn)	-6%	7	-7	12	-30%[15.4 µM]	14
Cc1ccc(Nc2nc(Oc3ccc(=O)[nH]n3)nc(N(C)C)n2)cc1	-7%	-6	-5	-0.6	-9%	0
COc1ccc(C(CNC(=O)COc2ccccc2C)N2CCCC2)cc1 (stereo not drawn)	5%	-3	-2	-6.1	-8%	-47
CCCCc1c(O)nc(SCC(=O)N2CCCCCC2)[nH]c1=O	3%	2	0	-2.8	25%	1
FC(F)Oc1ccc(/C=N/c2c(-c3ccc(OC(F)F)cc3)nc3n2CCS3)cc1	-13%	-2	4	-0.2	-41%[inhibitor]	-9
Cc1ccc(NC(=O)CSCC(=O)NC2=NCCS2)cc1	-1%	6	4	0.2	-17%	-4
COc1ccc([C@@H]2C[C@H]3[C@@H](CN2S(=O)(=O)c2ccccc2)C(=O)C[C@@H](c2ccccc2F)N3S(=O)(=O)c2ccc(C)cc2)cc1	.	-10	-2	-12	-2%	1
COC(=O)[C@]1(Cc2ccccc2)N[C@H](c2ccc(-c3ccc(Cl)c(Cl)c3)cc2)[C@@H]2C(=O)N(C)C(=O)[C@@H]21	-9%	-10	-8	-0.3	-28%	-5
CC(C)CCOC(=O)C[N+](C)(C)CCOC1CC2CCC1(C)C2(C)C (stereo not drawn)	6%	0	8	-4.3	0%	-13
COc1cccc(/C=N/Nc2nc(Nc3ccc([N+](=O)[O-])cc3)nc(N3CCCC3)n2)c1O	-11%	-17	-14	-15	-39%[inhibitor]	-24
CC1CCCN(C(=O)c2cc(-c3ccco3)nc3ccccc23)C1 (stereo not drawn)	-12%	0	6	-3.3	-2%	0
O=c1c2ccccc2nc2n1-c1ccccc1CCC2	-2%	9	3	1.2	-12%	0
Cc1cccc(NC(=O)CSc2nnc(NC(=O)c3ccco3)s2)c1	-20%	.	7	-2.8	-34%[inhibitor]	1
CCOc1cc(CN2CCCC(N3CCc4ccccc4C3)C2)ccc1O (stereo not drawn)	12%	6	0	-0.5	11%	-2
Nc1ccc2nc(-c3ccc(N)c(Cl)c3)[nH]c2c1	?	-18	-16	-0.1	?	-1
CC(OC(=O)c1nsc(Cl)c1Cl)C(=O)NCc1ccc2c(c1)OCO2 (stereo not drawn)	0%	8	5	-1.6	-27%	1
O=C(/C=C\NCC(=O)c1ccccc1)c1ccc2ccccc2c1	-14%	-16	-11	-0.7	7%	-16
COc1ccccc1C(=O)NCCC(=O)Nc1ccc(S(=O)(=O)Nc2ncccn2)cc1	3%	4	-1	0.4	?	-3
O=C(Cn1c(C(F)(F)F)nc2ccccc21)c1ccc(Cl)cc1	-16%	12	5	-0.9	-2%	-3
CCCN(Cc1ccccc1)C(=S)Nc1cccc(C)c1C	-10%	7	7	1.5	25%[15.4 µM]	-10
COc1cccc(CNC(=O)CCNC(=O)N2CC(=O)Nc3ccccc32)c1	.	2	-2	-2.2	-26%	-6
COCC(C)N1CCC(n2nccc2NC(=O)CCOc2ccccc2)CC1 (stereo not drawn)	8%	1	-3	-3.3	-17%	-14
Clc1ccc(C2=CC(c3ccco3)n3ncnc3N2)cc1 (stereo not drawn)	7%	-1	-5	-4.1	-6%	-6
Cc1coc(C)c1C(=O)CC1(O)C(=O)Nc2cc(Cl)cc(Cl)c21 (stereo not drawn)	1%	-4	-8	-2.5	-8%	-7
CN(C)S(=O)(=O)c1ccc(-c2csc(N/N=C/c3ccco3)n2)cc1	32µM*	-11	-13	?	-20%[15.4 µM]	15

More entries follow:
Compound	gsp antagonist	CtBP-E1A inh	Six1-Eya2 inh	D2 ag	gsp agonist	D2 potentiator
COC(=O)Cn1cc(C(=O)C(C)(C)C)c2ccccc21	7%	7	-2	0.1	2%[15.4 µM]	0
COc1ccccc1CNC(=O)CN(C)Cc1ccc(SC)cc1	-5%	1	-3	0.4	-24%[15.4 µM]	-13
Cc1c(NC(=O)CN2CCN(C(=O)c3ccco3)CC2)c(=O)n(-c2ccccc2)n1C	-1%	11	6	-0.1	-1%	-4
COC(=O)c1ccc(COC(=O)c2ccc(CO)cc2)o1	3%	3	7	-0.9	3%	-6
O=C(CC1SC(=Nc2ccc(OC(F)F)cc2)N(CCN2CCOCC2)C1=O)Nc1ccccc1 (stereo not drawn)	6%	.	1	-4.4	-31%[inhibitor]	-16
O=C(NCc1ccccn1)c1ccc(Cn2c(=S)[nH]c3ccc(Br)cc3c2=O)cc1	?	0	5	3.5	5%[15.4 µM]	-3
COc1nc(-c2ccccc2)nc(-c2ccccc2)c1C	7%	27	13	-1.2	-44%[15.4 µM]	1
